TAR Tat displ: HIV-1 TAR-Tat binding disruption. HIV-1 TAR RNA, Tat peptide displacement FRET; hits give high values. z-score (no concentration beside the values). actives 0.6% (n = 100,000);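 further: score is relative to mean and SD of negative controls; some compounds called inactive have numbers as strong as hits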
CDC25B CDK2 inh: human CDC25B-CDK2/CyclinA binding inhibition; actives 0.72% (n = 94,000); HTRF CDC25B-CDK2/CyclinA binding, anti-His/anti-Flag; hits give high values; AID 1259370; z-score (no concentration beside the values); P30305+P24941;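 further: score is relative to mean and SD of negative controls; strong numbers were not always called active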
Active calls of the source: *; x = not tested or not shown.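 How the source made its calls: active means z-score from 3 up in half or more of its runs; inactive means the rest.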

SMILES,TAR Tat displ,CDC25B CDK2 inh
CCOCCc1nn2c(=O)cc(COC(=O)CSc3ccc(Cl)cc3)nc2s1,-0.48,x
Cc1nc2c(C)cccn2c(=O)c1NC(=O)c1c(F)cccc1F,0.92,x
Cc1noc2ncnc(Nc3ccccc3F)c12,0.84,x
CCOc1ccc(OCC(=O)Nc2nnc3n2CCS3)cc1,-0.04,x
O=c1[nH]nc(SCc2nc3ccccc3s2)n1Cc1ccco1,x,-1
O=C(COc1ccccc1)N(Cc1cccs1)C1CCS(=O)(=O)C1 (stereo unspecified),-1.9,-0.46
CCn1nc2n(c1=O)-c1cc(C)ccc1OC2,0.88,-1.2
CC1CCN(C(=O)CSc2nc(-c3ccc(C(C)(C)C)cc3)nc3cc(=O)[nH]n23)CC1,0.9,x
O=C1c2ccncc2C(=O)N1c1ccc2c(c1)OCCO2,0.07,x
CCN(CC)c1nc(Cl)nc(Sc2nc3ccccc3[nH]2)n1,x,-1.9
Cc1cc(=O)[nH]c2c1c(=O)[nH]n2C1CCCC1,2.6,-1.4
Brc1ccc(OCc2nn3c(Cn4cnc5ccccc54)nnc3s2)cc1,0.83,1.4
CCn1c(CCc2ccc(NS(=O)(=O)Cc3ccccc3)cc2)nc2ccccc21,1.3,x
Cc1nnc(SCCn2c(N3CCC(C(N)=O)CC3)nc3c2c(=O)[nH]c(=O)n3C)s1,x,-2.9
CCOC(=O)Cn1c(=O)oc2cc(S(=O)(=O)N(C)c3ccc(OC)cc3OC)ccc21,-1.9,-0.58
CCCC(=O)N1CC2(CCC)CN(C(=O)CCC)CC(CCC)(C1)C2=O,1.1,-0.94
CN(C)C(=O)c1ccc2c(c1)N(CC(=O)N1CCOCC1)C(=O)C1CCCCN21 (stereo unspecified),0,x
COc1ccc2c(c1)c1nnc(-c3ccccc3)c-1cn2Cc1ccccc1OC,0.53,3.3
CN(C)c1ccc(C(CNS(=O)(=O)CCc2ccccc2)N2CCOCC2)cc1 (stereo unspecified),2.3,x
COc1ccc(-c2nc3c4c5c(sc4ncn3n2)C(C)(C)NC(C)(C)C5)cc1OC,-1.6,-0.86
CC1C(C#N)=C(N)OC2=C1C(=O)CCC2 (stereo unspecified),x,0.34
CSc1ccc(-c2cccnc2)nn1,0.74,x
O=C(CCc1nnc2ccc(NCc3ccc(Cl)cc3)nn12)Nc1ccc(Cl)cn1,0.56,x
Cc1cc2c3c([nH]c2cc1S(=O)(=O)N(C)Cc1cnn(-c2ccccc2)c1)CC(C)(C)CC3=O,0.57,x
O=C(Cn1c(=O)oc2ccccc21)NCCCc1ccco1,-0.98,x
O=C1NN(c2ccccc2)C(=S)Nc2ccccc21,x,-1.4
COc1ccc(CCNc2ncnc3c2nc2n3CCCCC2)cc1OC,0.16,x
CCOc1ccccc1NC(=O)N1CCn2cccc2C1C (stereo unspecified),-2.8,x
CC1(C)CC(=O)C2=C(C1)Nc1ccccc1N(C(=O)NCc1ccco1)C2c1ccco1 (stereo unspecified),0.7,x
O=C(O)c1cccnc1SCCS(=O)(=O)c1ccc(C(F)(F)F)cn1,x,-1.5
Cc1ccc2c(c1)C(O)(CC(=O)c1ccc3c(c1)OCCO3)C(=O)N2 (stereo unspecified),2.8,-0.23
CCOC(=O)/C(C(=S)Nc1ccccc1)=C(\C)NCc1ccco1,x,-2
O=C(NCCC1=CCCCC1)c1ccc(Cn2nc(N3CCN(c4ccccc4)CC3)ccc2=O)o1,1.7,x
Cc1cc(C(F)F)n2nc(C(=O)Nc3ccc(F)cc3F)nc2n1,3.9,-0.55
CCOC(=O)c1c(NC(C)=O)c2c(C)c(C)sc2n1C(CC)C(=O)N1CC(C)CC(C)C1 (stereo unspecified),1.4,x
Cc1cc2c3c([nH]c2cc1S(=O)(=O)Nc1ccc(F)cc1)CCCC3=O,-0.61,x
CCCOC(=O)C1=C(C)NC2=C(C(=O)CCC2)C1c1cc(Br)c(O)c(OC)c1 (stereo unspecified),0.72,-0.94
CCCn1c(=O)c2[nH]cnc2n(-c2ccccc2C)c1=O,x,-0.76
CCOc1cc(C2C3=C(CCCC3=O)N(C)C3=C2C(=O)CCC3)ccc1O,-0.47,-1.4
O=S(=O)(c1ccc(Cl)cc1)c1ccccc1C(F)(F)F,x,0.36
O=c1c2[nH]c3ccc(F)cc3c2ncn1CCc1ccc(Cl)cc1,3,-1.5
N#Cc1nc(/C=C/c2cccs2)oc1N1CCN(C(=O)c2ccc(Cl)cc2)CC1,-0.19,-2
COc1ccccc1OCC(=O)Nc1nnc2n1CCS2,-0.65,x
Cn1c(=O)c(=O)n(C)c2cc3c(cc21)[nH]c(=O)c(=O)n3Cc1ccccc1,1.3,-1.1
CCn1c(=O)n(CC)c2cc(N3CCCCC3)c(NC(=O)NC3CCCCC3)cc21,1.7,-1.6
CN(C)CCNC(=O)Cn1nc(-c2ccc(Cl)cc2)ccc1=O,x,-0.46
COc1ccc(OCCOc2cc(C)cc(C)c2)c(C2SC(NC(C)=O)=NN2C(C)=O)c1 (stereo unspecified),-0.29,-2.2
Nc1nc2c(c(=O)[nH]1)C(c1ccc(OCc3ccccc3Cl)cc1)CC(=O)N2 (stereo unspecified),-1.8,-0.73
CCc1c(C)c(C#N)c2nc3ccccc3n2c1N1CCN(C(=O)c2ccco2)CC1,0.82,-0.65
Cc1ccc(C)c(NC(=O)Nc2csc3c2CCCC3)c1,0.87,-1.1
O=C(Cn1c(=O)oc2cc(S(=O)(=O)NC3CCCC3)ccc21)NCc1ccc(F)cc1,-0.29,-0.38
O=C1c2ccccc2-c2onc3c(N4CCOCC4)cc(Nc4ccc5c(c4)OCCO5)c1c23,-6.2,1.7
CC1CC(=O)C2=C(C1)Nc1nc3ccccc3n1C2c1cccs1 (stereo unspecified),-0.58,-1.6
CN(CC[C@@H](Oc1ccc(C(F)(F)F)cc1)c1ccccc1)CC(=O)O,x,-0.19
O=C(CN1C(=O)COc2ccc(S(=O)(=O)N3CCCC3)cc21)N1CCC(N2CCCCC2)CC1,0.21,0.04
CCSc1nnc(NC(=O)CSc2nccn2-c2ccc(Cl)cc2)s1,x,-2.6
Cc1ccc(-c2nnc(NCc3ccccc3)c3ccccc23)cc1S(=O)(=O)NCCO,1.8,-1.6
O=C1NC2=C(CCc3ccccc32)C(c2ccccc2)N1 (stereo unspecified),x,-2.1
O=C(Nc1c(C(c2cccc(F)c2)N2CCOCC2)oc2ccccc12)c1ccco1 (stereo unspecified),1.1,1.2
O=C1C=CC(=O)N1c1ccccc1N1C(=O)C=CC1=O,x,3.1

Other structures.
SMILES,TAR Tat displ,CDC25B CDK2 inh
CC(=O)Nc1ccc(NC(=O)c2sc3nc4c(cc3c2N)CCCCCC4)cc1,x,-0.72
OC(COC1CCCCC1)Cn1cnc2ccccc21 (stereo unspecified),1.4,0.66
Cc1ccc(-c2cn3cccnc3n2)cc1NC(=O)c1ccc2c(c1)OCO2,x,0.49
CC(O)CNc1ncnc2c1cnn2C (stereo unspecified),0.35,x
Cc1cn2c(=O)cc(CSc3nc4ccccc4[nH]3)nc2s1,0.46,0.61
O=C(Cn1c(=O)oc2cc(S(=O)(=O)N3CCCCCC3)ccc21)NC1CCCCCC1,x,0.03
Cc1cc(C)n(CCc2nc3c4ccccc4n(CC(=O)c4ccc(F)cc4)c(=O)n3n2)n1,0.08,-0.59
COc1ccc(Nc2nc3ccc(C)cc3n3nnnc23)c(OC)c1,-0.26,x
CC1Cc2ccccc2N1S(=O)(=O)c1cc(-c2noc(C3CC3)n2)cs1 (stereo unspecified),1.2,x
Cc1c(C(=O)N(Cc2ccccc2F)C2CCS(=O)(=O)C2)oc2ccc(Br)cc12 (stereo unspecified),0.81,-1
O=C(Cn1cc(Cl)c(=O)c(Cl)c1)N/N=C/c1ccc([N+](=O)[O-])s1,x,3.6
Cc1sc2c(c1C)c(=O)n(-c1ccc(Cl)cc1)c(=O)n2Cc1cc(=O)n2cc(Cl)ccc2n1,-1.2,-1.8
CCOCCCN=C1NS(=O)(=O)C(c2ccc(OC)cc2)=C1C,0.42,-1.2
COc1ccc(N2CCN(c3oc(COc4ccccc4OC)nc3C#N)CC2)cc1,0.8,0.45
O=C(O)c1[nH]c2ccc(Cl)cc2c1CC(=O)N1CCCCCC1,x,-1.2
O=C(C(=O)N1CCN(Cc2ccc3c(c2)OCO3)CC1)c1c[nH]c2ccccc12,1,-1.8
O=S(=O)(/C=C/c1ccccc1)c1ccc(F)cc1F,x,0.52
N=S(Cc1ccc(Br)cc1)Nc1ccccc1 (stereo unspecified),x,-2
CCC(C(=O)N1CCN(C2CCCCC2)CC1)n1nc(C)c2sc3ccccc3c2c1=O (stereo unspecified),1.3,-2.7
Cc1sc2ncn(CC(=O)NCC(=O)O)c(=O)c2c1C,2.2,-1.1
COC(=O)c1cccc(NC(=O)c2cccc(NC(=O)c3cccc([N+](=O)[O-])c3)c2)c1,x,-2.3
Cc1ccccc1OCC(O)Cn1c(C)[n+](C)c2ccccc21 (stereo unspecified),0.91,0.53
Cc1ccnc(Nc2nc(-c3ccc(F)cc3)cs2)c1,-0.45,-1.3
COc1ccc(N(CC(=O)Nc2ccccc2C(=O)O)S(C)(=O)=O)cc1,x,-1.1

Compounds listed so far with a CF3 group:
SMILES,TAR Tat displ,CDC25B CDK2 inh
O=C(O)c1cccnc1SCCS(=O)(=O)c1ccc(C(F)(F)F)cn1,x,-1.5
O=S(=O)(c1ccc(Cl)cc1)c1ccccc1C(F)(F)F,x,0.36
CN(CC[C@@H](Oc1ccc(C(F)(F)F)cc1)c1ccccc1)CC(=O)O,x,-0.19

(list continues)
SMILES,TAR Tat displ,CDC25B CDK2 inh
O=C(Nc1ccccc1)c1sc(=S)n2c1[nH]c(=O)c1ccccc12,1.5,x
CC(C)n1cnc2cc(NCc3ccco3)ccc21,0.19,7.8*
CCCCC(CC)CNC(=O)C1CCC(Cn2c(=O)[nH]c3ccsc3c2=O)CC1 (stereo unspecified),-1.6,-1.4
O=C(OCC#CCOC(=O)c1ccccc1)c1ccccc1,x,-1.4
CCOC(=O)c1noc2nc(C)nc(Nc3cccc(C)n3)c12,0.9,x
Cc1ccc(/C=C/C(=O)Nc2cccc(C(F)(F)F)c2)o1,x,-3.5
CCCCN(C)C(=O)Cn1c(=O)oc2ccccc21,0.67,x
COc1cccc(-c2nnc(SCC(=O)O)o2)c1,-0.32,-2.3
CCc1ccc(NC(=O)NC(C)c2c(-n3cccc3)sc3c2CCCC3)cc1 (stereo unspecified),-0.66,-1.7
O=C(NCc1ccccn1)c1cc(CN2CCOCC2)on1,0.42,x
Cc1cc(=O)nc2c3ccccc3n(C(C)C(=O)NC(C)C)n12 (stereo unspecified),0.82,-1.2
Cc1nn2c(=O)cc(COc3cc(C)c(Cl)c(C)c3)nc2s1,-1.1,-1.7
CCOc1ccc(C2C3=C(CC(C)(C)CC3=O)Nc3cc(OC)c(OC)cc32)cc1 (stereo unspecified),2,1.7
CSc1nc(C2CC2)cc(-c2ccco2)c1C#N,x,-1.4
Cc1nnc2c(NCCN3CCN(c4cccc(Cl)c4)CC3)nc3ccccc3n12,-0.52,-1.6
CCCc1n(CC(O)COc2cccc(OC)c2)c2ccccc2[n+]1C (stereo unspecified),3.6,-0.77
CC1(C)CC(=O)C2=C(C1)Nc1cc3c(cc1C2c1ccccc1)OCCO3 (stereo unspecified),1.2,-0.63
CCOC(=O)c1cc(C#N)c(SC)nc1-c1ccccc1,x,-1.4
COc1ccccc1-c1nn2c(Cn3nnc4ccccc43)nnc2s1,-0.66,-0.85
CSc1nc2c(c(=O)n(C)c(=O)n2C)n1CCC(C)C,x,-0.24
CC(C)(C)C(=O)Nc1nnc(C23CC4CC(CC(C4)C2)C3)s1,x,0.92
CCOC(=O)C1C(=O)CC(C)(O)C(C(=O)OCC)C1c1ccccc1 (stereo unspecified),0.93,-0.15
Cc1onc(C(=O)NN)c1-c1csc(-c2ccccc2)n1,x,-0.67
Cc1ccc2nc(-c3cccnc3)cc(C(=O)NCc3ccc4c(c3)OCO4)c2c1,-1.1,x
O=C(CSc1nccn(-c2ccc(F)cc2)c1=O)c1ccccc1,0.15,x
CCCNC(=O)CCN1C(=S)NC(C)(C)CC1C (stereo unspecified),x,-0.74
CCc1nnc(OCC(=O)NCCC2=CCCCC2)c2cc3cc(F)ccc3n12,1.6,-5.1
Cc1ccc2oc(C(=O)N(Cc3sccc3C)C3CCS(=O)(=O)C3)c(C)c2c1 (stereo unspecified),1.3,1.3
CCC(=O)N1CCc2cc(Br)cc(S(=O)(=O)N3CCN(C(=O)c4ccco4)CC3)c21,1.8,0
Cc1ccc(S(=O)(=O)Nc2cc(Cl)c3oc(=O)sc3c2)cc1,-1.4,-2.7
C=CCn1c(=O)cc(C)c2c(C)nn(-c3ccccc3)c21,0.29,x

As a short view, some entries already given.
SMILES,TAR Tat displ,CDC25B CDK2 inh
CCCNC(=O)CCN1C(=S)NC(C)(C)CC1C (stereo unspecified),x,-0.74
CCc1nnc(OCC(=O)NCCC2=CCCCC2)c2cc3cc(F)ccc3n12,1.6,-5.1
Cc1ccc2oc(C(=O)N(Cc3sccc3C)C3CCS(=O)(=O)C3)c(C)c2c1 (stereo unspecified),1.3,1.3
CCC(=O)N1CCc2cc(Br)cc(S(=O)(=O)N3CCN(C(=O)c4ccco4)CC3)c21,1.8,0
Cc1ccc(S(=O)(=O)Nc2cc(Cl)c3oc(=O)sc3c2)cc1,-1.4,-2.7
C=CCn1c(=O)cc(C)c2c(C)nn(-c3ccccc3)c21,0.29,x

Source: PubChem BioAssay
